MARV entry inh = inhibitors of Marburg virus binding or cell entry. Marburg virus pseudotyped entry inhibition, cell reporter; control for the full effect not named in the record; about a third of the inactives were read at about 46 µM. Potency, µM (titrated, usually from 37.8 µM), inactives show at the top dose activity change, negative = inhibition, hits mostly inhibitors. 1.8% of 300,000 active. AID 540276; active = well fitted inhibition curve with a large enough effect; inconclusive = small, poorly fitted or top-dose-only effect, or effect the other way; inactive = flat fitted curve, though single readings scatter; tested in HEK293 cells; about a fifth of its hits are not listed in these tables; further: on the % scale 0 is the no-effect control and ±100 the full control effect; luciferase read-out
Cruzain Triton = blocks cruzain activity in presence of Triton detergent; purified cruzain, Z-FR-AMC fluorescence, 0.01% Triton; Potency, µM, for inactives: max response, negative = inhibition, hits mostly inhibitors; 0.43% of 200,000 active; active means well fitted curve in the direction sought with a large enough effect; inconclusive means small, poorly fitted or top-dose-only effect, or another doubt; inactive means no such curve, though single readings can be large; an effect the other way counts as inactive or inconclusive;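 further: plate controls were neutral wells for no effect and buffer without enzyme for full effect; nearly all actives have a fitted effect of over 40% in size; top concentration of the series not given in the record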
Target sequence (P25779 123-467 limits assumed): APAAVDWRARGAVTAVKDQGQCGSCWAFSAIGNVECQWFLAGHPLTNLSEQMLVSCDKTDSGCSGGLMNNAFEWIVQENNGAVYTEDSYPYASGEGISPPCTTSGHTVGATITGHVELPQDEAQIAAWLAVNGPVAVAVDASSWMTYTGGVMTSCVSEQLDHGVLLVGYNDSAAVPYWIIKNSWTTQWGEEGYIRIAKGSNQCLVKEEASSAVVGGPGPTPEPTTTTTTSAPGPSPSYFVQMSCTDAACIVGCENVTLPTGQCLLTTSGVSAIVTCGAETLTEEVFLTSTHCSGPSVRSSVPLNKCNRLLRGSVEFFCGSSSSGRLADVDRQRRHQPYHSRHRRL
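Read-out: AMC fluorescence (360 nm excitation, 450 nm emission), four reads over 2 min, first-to-third difference used. Conditions: cruzain 1.5 nM, Z-FR-AMC 2 uM, pH 5.5 acetate, 5 mM DTT, 0.01% Triton X-100.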
StopGo reporter = FMDV 2A StopGo reporter, luciferase signal; human cells with a luciferase reporter of 2A StopGo recoding; control for the full effect not named in the record; Potency, µM (highest dose often 57.9 µM), for the others: top-dose signal change, negative = less light; 1.2% of 410,000 active; active = well fitted falling curve with a large enough effect; inconclusive = small, poorly fitted or top-dose-only effect; inactive = no such curve, though single readings can be large or run the other way; tested in HEK293T cells; further: on the % scale 0 is the no-effect control and ±100 the full control effect; nearly all actives have a fitted effect of over 45% in size; luciferase light after 4 h
LASV entry inh = Lassa virus entry inhibition; Potency, µM (titrated, usually from 37.9 µM), for the others: at the top dose activity change, negative = inhibition, most hits filed as inhibitors; Lassa virus pseudotype entry inhibition, cell reporter; control for the full effect not named in the record; 1.2% of 300,000 active; active means well fitted inhibition curve with a large enough effect; inconclusive means small, poorly fitted or top-dose-only effect, or effect the other way; inactive means flat fitted curve, though single readings scatter; tested in HEK293 cells; further: on the % scale 0 is the no-effect control and ±100 the full control effect; nearly all actives have a fitted effect of over 50% in size; luciferase read-out
SARS PLpro yeast = SARS-CoV PLP inhibition in yeast. Potency, µM (series often up to 32.9 µM), inactives show at the highest dose activity, positive = growth rescue. 0.19% of 330,000 active. S. cerevisiae expressing SARS-CoV PLpro, growth rescue; control for the full effect not named in the record. AID 485353; further: 0% is about no effect; nearly all actives have a fitted effect of over 55% in size; growth read by luminescence after 48 h
NS1 inh = blocks influenza NS1 protein function; S. cerevisiae slowed by influenza A NS1, growth recovery by OD600; Potency, µM (highest dose often 46.1 µM), without a hit: at the highest dose activity, positive = more growth; 0.4% of 270,000 active; further: actives are rising curves; nearly all actives have a fitted effect of over 50% in size
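S. cerevisiae expressing influenza A NS1, grown in glucose, washed, then diluted 1:100 into pH 6.0 -URA galactose medium with 23 nl compound. Growth recovery read as OD600; NS1-free strain serves as control.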
Cruzain inh noDet = inhibitors of Trypanosoma cruzi cruzain without detergent; P25779; purified cruzain, Z-FR-AMC fluorescence, no detergent; Potency, µM, without a hit: max response, negative = inhibition, usual class: inhibitors; 2.3% of 200,000 active; AID 1476; active means well fitted curve in the direction sought with a large enough effect; inconclusive means small, poorly fitted or top-dose-only effect, or another doubt; inactive means no such curve, though single readings can be large; an effect the other way counts as inactive or inconclusive;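 further: plate controls were enzyme without inhibitor for no effect and buffer without enzyme for full effect; nearly all actives have a fitted effect of over 40% in size; top concentration of the series not given in the record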
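Detergent-free condition (0.00005% Triton X-100) in acetate buffer pH 5.5 with DTT. 1.5 nM enzyme and compound were pre-mixed 15 min, then 2 uM Z-FR-AMC substrate added; reaction progress from fluorescence change between first and third reads (60 s).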
RE007 growth inh = less growth of the S. pombe RE007 Vpr strain. S. pombe RE007 Vpr strain, BacTiter-Glo ATP luminescence, 24 h; control for the full effect not named in the record. Potency, µM (titrated, usually from 92.2 µM), for inactives: at the top dose activity change, negative = less growth. 0.21% of 360,000 active. AID 651644; active = well fitted falling curve with a large enough effect; inconclusive = small, poorly fitted or top-dose-only effect; inactive = no such curve, though single readings can be large or run the other way;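 further: on the % scale 0 is the no-effect control and ±100 the full control effect; nearly all actives have a fitted effect of over 50% in size; the assay follows cell death caused by Vpr and the record does not say whether a fall means rescue or toxicity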
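Fission yeast strain RE007, carrying one chromosomally integrated HIV-1 vpr copy, was seeded at OD 0.01 in PMG+AL medium with 23 nL pinned compound. After 24 h at 30 °C and 99% humidity, viability was read by BacTiter-Glo luminescence.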
Active calls of the source: *; ? = inconclusive; · = no result given; & = joins results of further samples; [ ] = another dose, or the depositor's remark. Unless noted, the call rests on the fitted dose curve; in most records, active means well fitted rising curve with a large enough effect; inconclusive means small, poorly fitted or top-dose-only effect; inactive means no such curve, though single readings can be large or run the other way. Potency means the concentration at half of the fitted maximal effect.

Below each compound – MARV entry inh | Cruzain Triton | StopGo reporter | LASV entry inh | SARS PLpro yeast | NS1 inh | Cruzain inh noDet | RE007 growth inh
CCOc1ccc(CCNC(=O)COC(=O)c2cc([N+](=O)[O-])ccc2N2CCOCC2)cc1OCC
 : · | · | -14% | · | 1% | 7% | · | -3%
O=C(O)C1CC1C(=O)N1CCN(c2ccc(Cl)c(Cl)c2)CC1 (stereo not given)
 : ? | -4.5% | 6% | 16% | -4% | -5% | -10% | -2%
Cc1ccc(-n2ncc3c2CC(C)(C)CC3NC(=O)CCN2CCCCC2=O)cc1 (stereo not given)
 : ? | · | -27% | -8% | -1% | -7% | · | 4%
CC1=CC2=NC(=O)/C(=C/c3cccn3Cc3ccccc3)C(=N)N2O1
 : 4%[46.1 µM] | · | -16% | ? | -2% | -2% | · | 7%
C#CCOCCOCCOCCNc1nc(N2CCN(C(=O)[C@H]([C@@H](C)CC)n3cc([C@@H](N)CO)nn3)CC2)nc(N2CCN(C(=O)[C@H](CCCCN)n3cc([C@@H](N)C(C)CC)nn3)CC2)n1 (stereo not given in full)
 : · | · | 0% | · | 0% | 0% | · | 4%
O=C1CC(c2ccc(Cl)cc2)c2c(O)cc(O)cc2O1 (stereo not given)
 : 2% | · | -11% | ? | 1% | 7% | · | -8%
CCN(CC)CCN(C(=O)CN1C(=O)c2ccccc2C1=O)c1nc2cc3c(cc2s1)OCO3
 : 0%[46.1 µM] | · | -5% | 7%[46.1 µM] | -7% | -7% | · | -13%
Cc1ccc(S(=O)(=O)Nc2cc3c(C(=O)Nc4ccccc4)c(C)oc3c3ccccc23)cc1
 : ? | -3.2% | 2% | -25% | -8% | 8% | -28% | -4%
CC1(C)Cc2ccccc2C(NNC(=O)c2ccccn2)=N1
 : ? | 3.4% | -10% | ? | -3% | -24% | 13% | -6%
CCN(c1ccccc1)S(=O)(=O)c1nnc(NC(=O)COc2ccc(OC)cc2)s1
 : · | -1.1% | -9% | 21%[46.1 µM] | · | · | 2% | ·
CCCCCCCCCCOC(=O)CCN1CC1
 : 13% | · | 8% | 23% | · | · | · | 8%
Cc1ccc(NC(=O)NC2OC(=O)c3ccccc32)cc1 (stereo not given)
 : 6%[46.1 µM] | · | -7% | 1%[46.1 µM] | · | · | · | 8%
COc1cc2c(cc1NC(=O)c1ccccc1C)n(C)c(=O)n2C
 : ? | -2.3% | 5% | ? | · | · | -4% | ·
COc1ccc(-n2cnc3c(sc4nc(N5CCOCC5)c5c(c43)CCCC5)c2=O)cc1
 : -25% | · | ? | ? | 2% | · | · | 6%
O=C(O)c1cc2cc(Cc3cccnc3)ccc2o1
 : ? | -3.2%&1.1% | -6% | 5% | · | -1% | 3%&-2% | ·

Some of these compounds in order of SMILES length, largest number first.
Below each compound – MARV entry inh | Cruzain Triton | StopGo reporter | LASV entry inh | SARS PLpro yeast | NS1 inh | Cruzain inh noDet | RE007 growth inh
O=C(O)C1CC1C(=O)N1CCN(c2ccc(Cl)c(Cl)c2)CC1 (stereo not given)
 : ? | -4.5% | 6% | 16% | -4% | -5% | -10% | -2%
Cc1ccc(NC(=O)NC2OC(=O)c3ccccc32)cc1 (stereo not given)
 : 6%[46.1 µM] | · | -7% | 1%[46.1 µM] | · | · | · | 8%
O=C(O)c1cc2cc(Cc3cccnc3)ccc2o1
 : ? | -3.2%&1.1% | -6% | 5% | · | -1% | 3%&-2% | ·

Compounds shown so far with a halogen, in the order listed:
Below each compound – MARV entry inh | Cruzain Triton | StopGo reporter | LASV entry inh | SARS PLpro yeast | NS1 inh | Cruzain inh noDet | RE007 growth inh
O=C(O)C1CC1C(=O)N1CCN(c2ccc(Cl)c(Cl)c2)CC1 (stereo not given)
 : ? | -4.5% | 6% | 16% | -4% | -5% | -10% | -2%
O=C1CC(c2ccc(Cl)cc2)c2c(O)cc(O)cc2O1 (stereo not given)
 : 2% | · | -11% | ? | 1% | 7% | · | -8%

(list continues)
Below each compound – MARV entry inh | Cruzain Triton | StopGo reporter | LASV entry inh | SARS PLpro yeast | NS1 inh | Cruzain inh noDet | RE007 growth inh
NS(=O)(=O)c1ccc(CNC(=O)c2scc3c2CCCC3)cc1
 : -4%[46.1 µM] | · | -2% | -14%[46.1 µM] | 0% | · | · | 1%
Cc1cc(C)cc(NC(=O)Cn2nnc(-c3ccccc3F)n2)c1
 : · | -1.3% | -6% | -17%[46.1 µM] | · | · | -16% | ·
Cc1nc2c3c(-c4ccccc4)c(-c4ccccc4)oc3ncn2n1
 : -2% | 6.7% | · | · | ? | -15% | 4% | ·
CC(=NNC(=O)Cn1ccc(C(F)(F)F)n1)c1ccc(-n2ccnc2)cc1
 : -21% | · | ? | 2% | -4% | · | · | 0%
O=C1CCCC2=C1C(c1ccc(Cl)cc1)C1C(=O)c3ccccc3C1=N2 (stereo not given)
 : ? | -6.8% | ? | -10% | -7% | ? | -7% | 13%
CCCCOC(=O)c1ccc(NC(C)=O)cc1
 : ? | -3.0% | 23% | 5% | -11% | -16% | 1% | -15%
Cc1cc(C(=O)CSc2nnc(N)s2)c(C)n1Cc1cccs1
 : 1.6µM* | -4.1% | -71% | 0.35µM* | 3% | 10% | -21% | 5%
CCOC(=O)c1ccc(NC(=O)NNS(=O)(=O)c2cc(OC)ccc2OC)cc1
 : -10% | · | 20% | 8% | 0% | 8% | · | 2%
O=C1C(c2ccccc2)SC(=Nc2ccccc2)N1S(=O)(=O)c1ccccc1 (stereo not given)
 : 10% | -0.9% | 24% | 3% | -8% | 27% | ? | -12%
O=c1cc(CN2CCN(S(=O)(=O)c3ccccc3)CC2)nc2sccn12
 : ? | · | 6% | 4%[46.1 µM] | -5% | · | · | 0%
COC(=O)c1c(NC(=O)CC2SC(N)=NC2=O)sc(C)c1C (stereo not given)
 : · | · | -21% | · | 1% | 2% | · | -11%
CCOc1ccc(-c2n[nH]c(C)c2-c2ccccc2OC)c(O)c1
 : ? | -2.0% | ? | ? | -27% | -35% | 2% | 1%
Cc1ccc(C)c(S(=O)(=O)N2CCN(C(=O)c3cc(S(=O)(=O)NCc4ccccc4)ccc3C)CC2)c1
 : ? | · | -21% | ? | 4% | 29% | · | 16%
Cc1noc2ncnc(N3CCCC3)c12
 : · | · | -2% | · | 0% | -2% | · | -7%
CCOc1ccccc1Nc1nc(N)nc(Cl)c1CC
 : ? | · | 16% | 4%[46.1 µM] | · | · | · | -8%

Profiles as entered above. Screens in order: MARV entry inh, Cruzain Triton, StopGo reporter, LASV entry inh, SARS PLpro yeast, NS1 inh, Cruzain inh noDet, RE007 growth inh
Cc1ccc(C)c(S(=O)(=O)N2CCN(C(=O)c3cc(S(=O)(=O)NCc4ccccc4)ccc3C)CC2)c1 is listed as ?, ·, -21%, ?, 4%, 29%, ·, 16%
CC(=NNC(=O)Cn1ccc(C(F)(F)F)n1)c1ccc(-n2ccnc2)cc1 is listed as -21%, ·, ?, 2%, -4%, ·, ·, 0%

Other compounds.
Below each compound – MARV entry inh | Cruzain Triton | StopGo reporter | LASV entry inh | SARS PLpro yeast | NS1 inh | Cruzain inh noDet | RE007 growth inh
COc1ccc(C(=O)N2CCOCC2)cc1S(=O)(=O)N1CCC(C)CC1
 : ? | 2.7% | 1% | -2% | 0% | 7% | -7% | -1%
COc1cccc(CC(=O)OCC(=O)NC2CCCC2)c1
 : -17% | · | 0% | 5% | -3% | · | · | -9%
Cc1coc2cc3oc(=O)c4c(c3cc12)CCC4
 : 4% | -1.1% | · | · | -5% | -3% | -24% | ·
CN(CC(=O)Nc1ccc(F)c(F)c1F)C(=O)c1ccc(-n2cncn2)c([N+](=O)[O-])c1
 : 2% | · | -12% | -10% | -4% | · | · | -12%
Cc1cc(=O)n2[nH]c(N)c(N=Nc3ccccc3F)c2n1
 : ? | -8.2% | 0% | 1% | 8% | -4% | -6% | 15%
Cc1ccc2nc(CCl)[n+]([O-])c(-c3ccccc3)c2c1
 : -8%[46.1 µM] | · | 28µM* | 18%[46.1 µM] | -3% | 0% | · | 0%
CC1Cc2ccccc2N1C(=O)CCn1c(=O)sc2ccccc21 (stereo not given)
 : 0% | · | 2% | · | 0% | -11% | · | -18%
CC1CCCN(C(=O)CCNS(=O)(=O)c2ccc3c(c2)oc(=O)n3C)C1 (stereo not given)
 : · | · | -6% | · | -2% | 1% | · | -8%
O=C(NCCCN1CCN(c2ccccc2F)CC1)C1CCCN(S(=O)(=O)c2cnc[nH]2)C1 (stereo not given)
 : · | -0.4% | -10% | · | 2% | 11% | -12% | -11%
c1ccc(-c2cc(-c3ccccc3)on2)cc1
 : · | · | -9% | · | -2% | -6% | · | -6%
CN(C)C(=O)CSc1nc2ccccc2n1Cc1ccccc1
 : -8% | 4.6% | -3% | 4% | 6% | 0% | 7% | -14%
CC(C)CC(=O)N1CCN(S(=O)(=O)c2ccc(Cl)cc2)CC1
 : -17%[46.1 µM] | · | -17% | -13% | 0% | -1% | · | 10%
COC(=O)c1ccc(Cn2nnc3c(=O)[nH]c(C4CCCN(S(=O)(=O)c5cccc(Cl)c5)C4)nc32)cc1 (stereo not given)
 : 0%&0%[46.1 µM] | -0.3% | ? | ? | 7% | 4% | -3% | 4%
CC(C)Cn1c(/C=C/c2ccc(F)cc2)nc2ccccc21
 : ? | -18% | 6% | ? | · | · | -30% | ·
CCOC(=O)C(NC(=O)c1ccccc1)=C(C)C
 : -16% | 4.9% | · | 6% | 2% | 9% | -13% | 4%
CCCn1c2ccc(C)cc2c2nnc(SCCN3CCOCC3)nc21
 : ? | · | -21% | ? | 1% | -7% | · | -15%
Cc1ccc(C(=O)NC2(C(F)(F)F)N=C(c3ccccc3)N(C3CCCCC3)C2=O)cc1 (stereo not given)
 : -9%[46.1 µM] | -5.3% | -20% | 4%[46.1 µM] | · | · | 6% | ·

Source: PubChem (National Center for Advancing Translational Sciences (NCATS))

Compounds as they come; 4.7% or so of the library scored in one or more.
